Bioassay records from PubChem BioAssay.
PrP 5UTR inh: suppresses PrP 5' UTR mRNA reporter expression. cell-based PrP 5' UTR mRNA reporter, plate reader. inhibition, % (concentration not given with the values). 0.35% of 340,000 active;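 active = every replicate at 50% or more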;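 note: 0 = median of the neutral control wells; tested in H4 reporter cells; numbers are from one replicate; inactives centre near -14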
Mtb hypoxia inh: inhibitors of hypoxia-regulated fluorescent reporter in Mycobacterium tuberculosis | M. tuberculosis hypoxia-regulated fluorescent reporter, fluorescence | fluorescence inhibition, % (concentration not given with the values) | 0.1% of 300,000 active;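 active = 35 to 45% if threefold the growth effect, above 45% if 1.5-fold the growth effect; inactive = the rest, general growth blockers included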;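 note: wells of about 50 µL received 100 nL stock; 0% = vehicle wells and 100% = reference inhibitor wells; whole bacteria with a GFP reporter of the hypoxia response; strong numbers were not always called active; many hits fall short of the cut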
Sa RN4220 lethal: S. aureus RN4220 growth inhibition; inhibition, % (no concentration beside the values); 0.33% of 330,000 active; AID 1259311; OD600, 16 h;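 active = z-score of -3 or lower and OD600 up to 0.18 on both plates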;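 note: plate controls were untreated cells for no effect and reference antibiotic for full effect; stock transfer was 100 nL into about 80 µL; one replicate is shown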
Bead autofluor: compound fluorescence in toxin protease inhibitor counterscreen; 3.1% of 360,000 active; compound autofluorescence counterscreen, microsphere flow cytometry; stronger effect = higher value; fluorescence intensity (test concentration not listed);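 active = at least 3 SD above the mean of all compounds, about 16000 in these data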;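 note: 100 nL of 1 mM stock went into each well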
Sa ugtP lethal: kills S. aureus RN4220 lacking UgtP | S. aureus RN4220 ugtP deletion, OD600 growth, 16 h; some inactives read as strong as hits | growth inhibition, % (concentration not given with the values) | 0.54% of 330,000 active | AID 1259309;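 active = z-score under -3 and OD600 up to 0.15 on both plates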;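 note: plate controls were untreated wells for no effect and antibiotic for full effect; wells of about 80 µL received 100 nL stock; the first replicate is given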
BJeLR lethal: BJeLR cell viability loss; 0.17% of 300,000 active; BJeLR (HRASV12) viability, CellTiter-Glo ATP luminescence, 48 h; reference of the scale not given here; inhibition, % (no concentration beside the values); AID 1554;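 active = replicate mean above 50%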;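 note: 50 nL library stock added to about 25 µL; numbers are from one replicate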
Mtb hypoxia inh growth: recorded beside Mtb hypoxia inh, whose call it bears; growth inhibition, %; measured here: M. tuberculosis growth (absorbance);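 0% = vehicle and 100% = reference antibiotic; read after six days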
Numbers without * were called inactive; · = no result given.

SMILES | PrP 5UTR inh | Mtb hypoxia inh | Mtb hypoxia inh growth | Sa RN4220 lethal | Bead autofluor | Sa ugtP lethal | BJeLR lethal
COc1ccc(NC(=O)c2cc(C)nc3ccccc23)cc1S(=O)(=O)Nc1ccccc1Cl | -33.5 | 2.8 | -0.1 | 4.3 | 6648 | -11.2 | -4.4
COc1ccc(/C=C/C2=Nc3ccccc3NC(C)(C)C2)cc1OC | -20.7 | 2.7 | 3.5 | 5.5 | 3728 | 7.8 | 4.8
CCn1cc(CNC(=O)c2cccc([N+](=O)[O-])c2)c(C)n1 | -20.9 | 4.6 | -0.8 | 0.9 | 2092 | 6.7 | -6.3
Cc1nc2ccccc2c(=O)n1-c1cccc(O)c1 | -32.8 | · | · | 5.2 | 2704 | 4.2 | 3.8
COCCCN1C(=O)C(O)=C(C(=O)c2ccco2)C1c1cccc(Br)c1 (stereo not drawn) | 2.6 | 11.9 | 12.6 | 31.1 | 8882 | -2.4 | 15.5
CC(CC(=O)Nc1ccc(Cl)cn1)=NNC(=O)Cc1cccs1 | · | -4.7 | -7.4 | 3.6 | · | 1.3 | ·
CCOc1ccc(C(C)=O)cc1N1C(=O)C2C3C=CC(O3)C2C1=O (stereo not drawn) | -55.6 | 9.0 | 3.7 | -0.2 | 15990 | 5.4 | -6.3
O=C(NS(=O)(=O)c1ccc(NC(=O)C2CCCO2)cc1)c1ccccc1 (stereo not drawn) | -14.2 | -3.9 | 4.2 | -1.4 | 10281 | -0.1 | -0.1
Cc1occc1C(=O)N/N=C/c1c(O)ccc2ccccc12 | 13.9 | · | · | · | 4057 | · | 7.1
O=C(Nc1ccccc1C(=O)O)c1ccc(NC(=O)C2CC2)cc1 | 2.5 | 14.1 | 2.9 | 6.9 | 4413 | 14.8 | 7.2
Cc1cccc(COc2ccc(C=NNC(=O)c3nnn(-c4nonc4N)c3COc3ccc(F)cc3)cc2)c1 | · | -12.0 | 0.6 | 5.0 | · | 3.8 | ·
O=[N+]([O-])c1cc(C(F)(F)F)cc([N+](=O)[O-])c1N1CCN(S(=O)(=O)c2ccccc2)CC1 | -5.8 | 3.7 | 4.9 | 4.2 | 2496 | 1.5 | -1.1
CC(C)C(=O)NCCc1c[nH]c2ccccc12 | 0.6 | 6.3 | 2.3 | 5.4 | 1935 | 9.6 | -7.1
O=C1/C(=C\c2ccc([N+](=O)[O-])cc2)CCc2ccccc21 | -34.5 | 6.7 | -8.3 | 1.1 | 2155 | 7.7 | 0.7
CC(=O)c1c(C)[nH]c(C(=O)CSc2nnc(C3CCCCC3)n2N)c1C | -20.0 | 1.2 | 2.7 | 1.8 | 4175 | -0.4 | 2.7
CC(C)(C)[C@H]1CCC(=O)N([C@H](CC#N)Cc2ccccc2)CC1 | -43.1 | · | · | · | 3545 | · | -1.4
COc1ccc(CCC(=O)c2ccc(OC)cc2)cc1 | · | 21.9 | 8.8 | 7.4 | 4147 | 14.0 | 3.5
O=C(Nc1ccc([N+](=O)[O-])cc1)Nc1cnccn1 | -17.9 | -3.7 | -1.9 | 2.3 | 5964 | 3.7 | -14.8
Cc1sc2nc(CSC(C)C(=O)N3CCOCC3)[nH]c(=O)c2c1C (stereo not drawn) | -18.4 | 7.5 | -1.0 | 3.0 | 5680 | 2.4 | -10.5
CCCC(=O)N1CCN(c2nc3ccc(CC)cc3s2)CC1 | -37.3 | 8.9 | 18.8 | 0.7 | 5266 | -0.6 | 5.3
COC1=C(OC)c2ccccc2C(C(=O)O)N/C1=C(/C)Nc1ccncc1 (stereo not drawn) | -9.3 | 13.5 | 7.1 | 0.5 | 2628 | 1.6 | -0.5
CCN1C(=NCc2ccccc2)N[C@@H](c2ccccc2)[C@H](C(=O)OC)[C@H]1C | 3.8 | · | · | · | 3988 | · | 0.5
CCOC(=O)c1cnn(C)c1NC(=O)c1ccc(Cl)cc1Cl | -17.5 | 14.5 | -4.4 | 4.5 | 3529 | 2.5 | -0.2
C=CCOc1ccc(C=NO)cc1Cl | · | 5.8 | 3.0 | 8.2 | · | 3.3 | ·
COc1ccc2c(c1)CCc1sc(NC(=O)c3ccc(C)cc3)nc1-2 | -16.8 | -3.6 | -6.3 | -5.8 | 2904 | -13.9 | 5.8
CN(C)C=NS(=O)(=O)c1cccn1-c1ncc(C(F)(F)F)cc1Cl | · | -0.3 | -1.4 | -0.2 | · | 9.8 | ·
Cc1cc2ccccn2c1C(=O)c1ccc(NN=Cc2ccc(C(=O)O)cc2)c([N+](=O)[O-])c1 | · | -4.2 | -10.2 | 4.1 | · | 2.8 | ·
O=C1NC(=Nc2ccc3ccccc3c2)S/C1=C/c1ccco1 | -14.9 | -0.5 | 7.7 | -16.7 | 4786 | 13.9 | 2.4
Cn1c(N)c(C(=O)COC(=O)/C=C/c2ccc(OC(F)F)cc2)c(=O)n(C)c1=O | -27.6 | 10.1 | -3.4 | 0.0 | 4601 | -1.5 | 3.5
O=C(NCc1ccccn1)C1CC(c2ccc(Cl)c(Cl)c2)=NO1 (stereo not drawn) | -2.2 | · | · | 9.9 | 2172 | 5.6 | 6.7
COc1ccc(C=NNC(=O)c2cccc(NC(C)=O)c2)c(C(=O)O)c1OC | · | 16.0 | 12.4 | 7.7 | · | 3.6 | ·
O=C(c1ccccc1)N1CCN=C1SCc1ccc([N+](=O)[O-])cc1 | -18.2 | 2.8 | -5.0 | 0.5 | 2114 | 3.5 | -2.3
COc1ccc(CCN2C(=O)NC(NS(=O)(=O)c3ccc(Cl)cc3)(C(F)(F)F)C2=O)cc1OC (stereo not drawn) | -11.0 | 3.5 | 7.7 | 1.7 | 3934 | -0.6 | -11.4
CCC(C)NC(=O)CCSc1ccc(C)cc1 (stereo not drawn) | -22.3 | 2.9 | 1.7 | 4.4 | 2608 | 5.1 | 8.5
COc1ccc(C(C)=NNC(=O)CSc2nnc(C)s2)cc1 | · | -3.6 | 1.7 | 6.5 | · | -9.8 | ·
O=C(O)c1ccc(NC(=O)C2CC=CCC2C(=O)O)cc1 (stereo not drawn) | -8.7 | · | · | 2.4 | 2878 | -4.0 | 8.5
COC(=O)c1scc(C)c1NS(=O)(=O)c1ccc(NC(C)=O)cc1 | -10.3 | 13.5 | 14.4 | 5.9 | 4519 | 6.7 | 3.5
CC(=O)Nc1ccc(C(=O)NCC(c2ccco2)N(C)C)cc1 (stereo not drawn) | -5.3 | -0.1 | 2.0 | 1.5 | 6045 | 2.9 | -3.6
O=C(Nc1cccc(-c2ccc(N3CCCCC3)nn2)c1)c1ccco1 | -79.1 | 4.3 | 1.5 | 2.6 | 6826 | -0.8 | 0.4
CC(=O)Nc1cc(C(=O)N2CCCC2)ccc1S(=O)(=O)c1ccc(C)cc1 | -17.6 | 20.2 | 8.9 | -11.4 | 2968 | -8.1 | -6.3
CCOC(=O)C1CCCN(Cc2ccc(OCc3ccccc3)c(OC)c2)C1 (stereo not drawn) | -54.4 | 13.5 | 8.5 | 3.1 | 3809 | 9.2 | -5.2
O=C(COC(=O)c1ccccc1O)NCCCc1ccccc1 | -11.6 | 6.1 | -3.3 | 2.3 | 4588 | 11.5 | 4.2
C=C(C)Cn1c(N2CCCC2)nc2c1c(=O)[nH]c(=O)n2C | -17.6 | 2.8 | 1.0 | 7.8 | 5033 | 13.0 | 7.5
Cc1cccc(NC(=O)c2cc(-c3cc(C)c(C)cc3O)n[nH]2)c1 | -62.5 | 5.1 | 4.7 | -0.2 | 3589 | 11.9 | -6.0
CSc1nc(C)c(C(=O)C[n+]2ccccc2C)cc1C#N | -26.8 | 12.6 | 5.7 | 4.5 | 4545 | -3.6 | -2.9
CCOC(=O)c1sc(NC(=S)NC(=O)C23CC4CC(CC(C4)C2)C3)cc1C | -36.5 | -5.4 | 7.4 | 8.4 | 9269 | 9.0 | -5.0
C=C(C)C1CC=C(C)/C(=N/NC(=O)c2ccc(NC(=O)CCC)cc2)C1 (stereo not drawn) | -9.7 | · | · | · | 16939* | · | 7.3
COC(=O)c1ccccc1NC(=O)c1cccc(COc2ccccc2Cl)c1 | -78.9 | · | · | -5.1 | 3888 | 8.6 | 16.5

Entries shown so far that have an aryl thioether with sulfur outside any ring, in the order listed:
SMILES | PrP 5UTR inh | Mtb hypoxia inh | Mtb hypoxia inh growth | Sa RN4220 lethal | Bead autofluor | Sa ugtP lethal | BJeLR lethal
CC(=O)c1c(C)[nH]c(C(=O)CSc2nnc(C3CCCCC3)n2N)c1C | -20.0 | 1.2 | 2.7 | 1.8 | 4175 | -0.4 | 2.7
CCC(C)NC(=O)CCSc1ccc(C)cc1 (stereo not drawn) | -22.3 | 2.9 | 1.7 | 4.4 | 2608 | 5.1 | 8.5
COc1ccc(C(C)=NNC(=O)CSc2nnc(C)s2)cc1 | · | -3.6 | 1.7 | 6.5 | · | -9.8 | ·
CSc1nc(C)c(C(=O)C[n+]2ccccc2C)cc1C#N | -26.8 | 12.6 | 5.7 | 4.5 | 4545 | -3.6 | -2.9

Next section:
SMILES | PrP 5UTR inh | Mtb hypoxia inh | Mtb hypoxia inh growth | Sa RN4220 lethal | Bead autofluor | Sa ugtP lethal | BJeLR lethal
O=C(Nc1ccc(Cl)c(Cl)c1)OCCNC(=O)c1ccncc1 | -8.2 | 3.8 | 7.7 | -3.0 | 4757 | 1.7 | 5.2
N#C/C(=C\c1ccc(N2CCOCC2)c([N+](=O)[O-])c1)c1nc2ccccc2[nH]1 | -41.2 | -2.6 | 2.9 | -8.2 | 2111 | 5.4 | -4.1
Cc1cccn2c(=O)c3cc(C#N)c(=NC(=O)c4ccncc4)n(CCCOC(C)C)c3nc12 | -23.7 | 1.3 | 0.5 | -5.4 | 2246 | -1.8 | -6.4
COc1cc(/C=C2\SC(N)=NC2=O)ccc1O | -2.0 | -3.4 | 9.0 | 0.6 | 3733 | -2.7 | 3.6
Cc1nc2ccc(NS(=O)(=O)c3ccc4c(c3)OCCO4)cc2s1 | -14.6 | 8.6 | 9.1 | 5.7 | 2439 | 12.3 | 16.9
CCOc1ccc(NC(=O)CN(C)C(=O)CSc2ccccc2)cc1OCC | -3.4 | -2.9 | 9.3 | -0.6 | · | 1.7 | ·
CCOc1ccc(CC(=O)OCc2cc(=O)n3cc(Br)ccc3n2)cc1 | -44.5 | -0.8 | 7.1 | 15.5 | 3254 | -0.5 | ·
COc1ccc(CNC(=O)CSc2nc3c(oc4ccccc43)c(=O)n2CC2CCCO2)cc1 (stereo not drawn) | -3.5 | -7.8 | -1.5 | 3.1 | 5783 | -1.3 | 20.5
COCCNC(=O)Cn1cc(C(=S)N2CCCCC2)c2ccccc21 | -22.4 | -0.6 | -0.3 | 4.9 | 4506 | 2.9 | 15.6
COc1cc2c3c(c1)-c1c(sn(-c4cc(OC)ccc4OC)c1=S)C(C)(C)N3C(=O)C2=O | -25.7 | 15.4 | 14.4 | 49.2 | 21539* | 6.2 | -4.8
Cc1ccc(S(=O)(=O)n2c(C)nc3cc(C)ccc32)cc1 | -12.2 | -0.4 | -7.4 | 2.4 | 4240 | 0.3 | -0.3
S=C(Nc1ccc(Cl)cc1)N1CCCC1 | -8.2 | 7.6 | 10.2 | 5.8 | 2503 | 0.0 | 8.1
CCCNC(=S)N1CCC(NC(=O)Nc2ccc(C)cc2)CC1 | -15.8 | 22.6 | 7.4 | 4.9 | 4077 | 5.7 | 7.2
NC(=O)CSc1nc(-c2ccccc2)c(-c2ccccc2)o1 | -16.3 | -5.7 | -14.8 | -6.8 | 6551 | 4.6 | 8.4
COc1ccc(-c2cc3cc(-c4cc(OC)c(OC)c(OC)c4)ccc3o2)cc1 | -5.1 | 3.0 | 4.0 | -2.2 | 4214 | -34.0 | ·
Cn1c(NC(=O)c2ccccc2F)cc(=O)n(C)c1=O | 3.4 | 1.6 | -2.5 | 5.6 | 5867 | 11.0 | -0.5
CCOC(=O)C(Cc1ccccc1)C(=O)Nc1nccs1 (stereo not drawn) | -15.3 | · | · | 3.9 | 2407 | 5.5 | 1.9
COc1ccccc1NS(=O)(=O)c1cc(-c2cc(C)no2)ccc1OC | -15.4 | -1.3 | 8.5 | 2.3 | 5509 | 1.9 | -1.9
CCCN(c1ccc(C(C)C)cc1)S(=O)(=O)c1c(C)[nH]c(=O)[nH]c1=O | -45.1 | 0.7 | -0.8 | 2.7 | 7902 | 8.1 | 0.8
Cc1cc(C(=O)NN=Cc2ccc3ccccc3c2)n[nH]1 | · | 7.1 | -3.9 | 2.0 | · | 5.3 | ·
